Bioassay records as filed in PubChem BioAssay.
BasE inh: blocks the Acinetobacter baumannii siderophore enzyme BasE; 84,000 tested, 0.1% active; purified BasE, fluorescence polarization binding displacement; inhibition, % (test concentration not listed); AID 485350;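 active = both replicates above 25% with normal brightness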;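 also: 0% = negative plate control signal and 100% = positive plate control signal; stock transfer was 100 nL into about 30 µL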
LANA-nucl inh: LANA-nucleosome interaction inhibition | 51,000 tested, 0.3% active | FITC-LANA1-23 / chicken nucleosome fluorescence polarization; active compounds read low | AID 720717 | z-score (no concentration beside the values);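 active = both repeat wells score below -2 in polarization z-score versus plate sample wells, excluding overly bright wells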;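 also: 100 nL library stock added to about 30 µL; numbers are from one replicate; some results filed as inactive read as strong as hits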
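Test system: purified chicken nucleosomes with FITC-labelled LANA N-terminal peptide (1-23); Input: 240 nM purified chicken nucleosomes (480 nM peptide binding sites), final; Medium: TEN-BT buffer, pH 7.5; Timing: 10–45 min, room temperature; Technique: fluorescence polarization, 480 nm excitation, 535 nm parallel and perpendicular emission; Replication: duplicates.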
An asterisk follows results filed as active; . = no result given; & = joins results of further samples. The list is partial; the hit share may differ from the screen's.

SMILES	BasE inh	LANA-nucl inh
CCOC(=O)/C(C#N)=c1\s/c(=C\c2ccc(OC)cc2)c(=O)n1CC	0.6	.
CC(C)(C)c1cc2nc(C(F)(F)F)cc(N3CCN(c4ncc(C(F)(F)F)cc4Cl)CC3)n2n1	1.2	-0.94
Cc1cc(OCn2ccc(C(=O)O)n2)ccc1Cl	-2.3	0.57
COc1ccc(NC(=O)c2oc3ccccc3c2NC(=O)C2CCCCC2)cc1OC	-0.7	0.56
CCCCNS(=O)(=O)c1ccc2c(c1)nc(SCC(=O)N1CCCC1)n2CCCC	-2.2	.
Cc1ncc([N+](=O)[O-])n1CC(O)CCl (configuration not stated)	1.0	-0.37&-0.6&0.75
Cc1nc2sc(C(=O)OCC(=O)c3cc(C)n(C)c3C)c(C)c2c(=O)[nH]1	1.3	.
Cc1ccc(C23CC4CC(CC(C(=O)NC5=NCCS5)(C4)C2)C3)cc1	0.8	.
Cn1c2ccccc2c2nnc(SCCC(=O)O)nc21	-1.1	0.73
COc1ccc(N2CCN(S(=O)(=O)c3ccc4[nH]c(=O)oc4c3)CC2)cc1	1.1	-0.85
CSc1ccccc1C(=O)OC(C)C(=O)NC1CCCCC1 (configuration not stated)	0.3	.
Cc1cc(C)c(/C=N/O)c(C)c1/C=N/O	0.2	1.1
Cc1nn(-c2ccccc2)c2nc(-c3ccco3)cc(C(=O)O)c12	0.7	.
COc1ccc(NC(=O)Nc2cccc(OC)c2)cc1	1.7	-1.2
Oc1ccccc1Oc1c(F)c(F)nc(N2CCCC2)c1F	2.6	.
CN(C)c1cccc(N=Cc2c(O)n(-c3ccc(Cl)cc3)c(=O)[nH]c2=O)c1	-0.2	0.14
Cc1ccc(S(=O)(=O)N(CCc2ccccc2)CC(=O)Nc2ccc(C(C)C)cc2)cc1	0.1	.
CCN(CC)/C(N)=N/c1nc(C)cc(C)n1	0.9	-0.5
Cc1ccc(C)c(N2CCN(CCCNC(=O)Nc3cn(CC(C)C)c(=O)c4ccccc34)CC2)c1	-1.8	.
O=C(CSc1nnc(-c2c[nH]c3ccccc23)o1)NC(=O)Nc1ccccc1F	0.7	.

Given as comma-separated lines: part of the list above
canonical_smiles,BasE inh,LANA-nucl inh
CSc1ccccc1C(=O)OC(C)C(=O)NC1CCCCC1 (configuration not stated),0.3,.
COc1ccc(NC(=O)c2oc3ccccc3c2NC(=O)C2CCCCC2)cc1OC,-0.7,0.56

The list goes on.
SMILES	BasE inh	LANA-nucl inh
CCn1c(SCCC#N)nc2cc(S(=O)(=O)N3CCCCC3)ccc21	-0.4	.
O=C(O)CSc1nccn1-c1ccc(Br)cc1	0.7	.
CC/C(C)=N/Nc1ccc(S(=O)(=O)N(CC)CC)cn1	1.1	.
Cc1noc2ncnc(N3CCC(C(N)=O)CC3)c12	1.6	.
CC(=O)Nc1ccc2c(CSc3nnc(-c4ccco4)n3C)cc(=O)oc2c1	0.5	.
CCc1ccccc1NC(=O)CSc1nnc(C)n1CC	-3.5	0.26
O=C(NC(Sc1ncccn1)C(=O)c1ccccc1)c1ccccc1 (configuration not stated)	2.0	.
CC(C)(C)NC(=O)c1ccccc1NC(=O)Nc1ccccc1	0.1	-0.36
Cc1nn(C)c(C)c1CNC(=O)NC1CCCC1	-0.5	-0.6
O=C(Cc1coc2cc3c(cc12)CCC3)N1CCc2ccccc21	1.2	.
O=C(COc1ccc2c(c1)OCO2)c1ccc(F)cc1	1.2	.
CC1(c2ccc(OC(F)F)cc2)NC(=O)N(/N=C/c2ccncc2)C1=O (configuration not stated)	1.5	.
CCOC(=O)c1cn(CC)c2cc(N3CCCC3)c(F)cc2c1=O	0.3	-0.55
C=CCNC(=O)N1CC(Oc2ccc(Cl)cc2)C1	-0.8	.
Cc1cc(=O)oc2c(CN3CCCCC3)c(O)ccc12	1.7	.
CC(NS(C)(=O)=O)C(c1cccs1)N1CCN(Cc2ccccc2)CC1 (configuration not stated)	0.2	-0.94
NCC(c1ccccc1)N1CCCC1 (configuration not stated)	1.8	.
Cc1nn(-c2ccccc2)c(N)c1N=Nc1ccc(S(=O)(=O)N2CCOCC2)cc1	0.9	1.6
O=c1c(Br)c(N2CCc3ccccc3C2)cnn1-c1ccccc1	-1.0	.
C/C(=C\C(=O)Nc1ccc(Cl)cc1)N1CCN(Cc2ccccc2)CC1	1.8	.
O=c1c2c(-c3ccccc3)csc2nc2n1CCCCC2	1.5	.
Cc1nc2cc(NS(=O)(=O)c3ccccc3)ccc2n1-c1ccccc1	-3.3	.
COc1ccc(NS(=O)(=O)c2ccc3c(c2)N(C(C)=O)CC(C)O3)cc1OC (configuration not stated)	1.4	-1.4
CCN(CC(=O)NCc1cccs1)c1ncnc2sc3c(c12)CCCC3	-0.6	.
C=CCCCCCCCCCCCC(O)CC(O)COC(C)=O (configuration not stated) (tested in a mixture with another compound)	4.2	0.77
CCc1noc(C)c1C(=O)OCC(=O)NC12CC3CC(CC(C3)C1)C2	-5.2	.
Oc1cccc(-c2nc3ccc4ccccc4c3c3c2CCCC3)c1	1.1	.
CC(C)N(Cc1ccccc1)S(=O)(=O)c1cccc(C#N)c1	1.7	.
O=S(=O)(Cc1nc(-c2ccc(Cl)cc2)cs1)c1ccccn1	-1.8	0.24
CN1OC(COC(=O)c2cc(Cl)cc(Cl)c2)CC12C1CC3CC(C1)CC2C3 (configuration not stated)	-0.6	.
c1ccc(C2CC(c3cccs3)n3nnnc3N2)cc1 (configuration not stated)	-0.8	.
CCC(CC)NC(=O)CSc1ccccc1	-2.1	1.8
CC(C)Oc1ccc(C(=O)NC(CC(=O)O)c2ccccc2)cc1 (configuration not stated)	1.1	.
O=C(CSc1ncn[nH]1)Nc1ccc(S(=O)(=O)N2CCCCC2)cc1	2.3	.
CC(Sc1nnc(C2CC2)n1C1CC1)C(=O)c1ccc(NS(C)(=O)=O)cc1 (configuration not stated)	0.1	.
CCOC(=O)c1oc2ccccc2c1Cn1nnc(-c2ccccc2)n1	1.4	.
O=C(O)c1c2c(nc3ccccc13)CCC(c1ccccc1)C2 (configuration not stated)	2.5	.
COCc1cc(=O)[nH]c(-c2cccc(C)c2)n1	3.5	-0.18
c1ccc(CCN2Cc3ccccc3C2)cc1	-0.6	0.29
COc1cccc(Oc2nc3ncn(Cc4ccccc4)c3c(=O)n2C)c1	-3.7	2.2

Individual results from the results shown.
`CC(Sc1nnc(C2CC2)n1C1CC1)C(=O)c1ccc(NS(C)(=O)=O)cc1` (configuration not stated) in BasE inh shows 0.1
`c1ccc(C2CC(c3cccs3)n3nnnc3N2)cc1` (configuration not stated) in BasE inh shows -0.8
`O=S(=O)(Cc1nc(-c2ccc(Cl)cc2)cs1)c1ccccn1` in BasE inh shows -1.8
`COc1ccc(NS(=O)(=O)c2ccc3c(c2)N(C(C)=O)CC(C)O3)cc1OC` (configuration not stated) in LANA-nucl inh shows -1.4
`CN1OC(COC(=O)c2cc(Cl)cc(Cl)c2)CC12C1CC3CC(C1)CC2C3` (configuration not stated) in BasE inh shows -0.6
`CCOC(=O)c1oc2ccccc2c1Cn1nnc(-c2ccccc2)n1` in BasE inh shows 1.4
`COc1cccc(Oc2nc3ncn(Cc4ccccc4)c3c(=O)n2C)c1` in LANA-nucl inh shows 2.2

Further structures follow:
SMILES	BasE inh	LANA-nucl inh
OCCNc1nc(NCCO)c2cnn(-c3ccccc3)c2n1	-1.9	3
O=C(N/N=C/c1ccccc1)c1[nH]ncc1I	3.0	-0.6
COc1ccccc1C(=O)COC(=O)C1CCCCN1S(=O)(=O)c1ccccc1 (configuration not stated)	2.1	.
CN(C)c1scc(-c2ccc(Cl)cc2)c1C#N	-0.4	.
O=C(Nc1ccc2c(c1)OCO2)C(O)(c1ccccc1)c1ccccc1	-2.8	0.29
O=C(Nc1ccc2c(c1)OCO2)C(=S)NCc1ccccc1	-1.9	.
Cc1nn(-c2ccccc2)nc1CNC(=O)c1ncoc1-c1ccccc1	0.1	-0.069
Cc1onc(-c2c(Cl)cccc2Cl)c1C(=O)O/N=C(\C#N)c1ccccc1	0.9	-0.27
O=C(O)c1cc(Cl)c[nH]1	1.2	.
O=C1CC(Sc2nnc(-c3ccccc3O)o2)C(=O)N1c1ccccc1 (configuration not stated)	3.0	1.1
CC(Oc1ccc(Cl)cc1Cl)C(=O)NC1=NN(c2ccccc2)C(=O)C1 (configuration not stated)	1.1	.
CCSC1=N/C(=C\c2cccc(F)c2)C(=O)S1	4.9	.
Cc1ccc2nc(CSc3nc4ccccc4c(=O)[nH]3)cc(=O)n2c1	-1.0	.
COc1ccc(CC2=C(O)c3ccccc3C(=O)C2=O)cc1	3.4	0.076
CCOc1ccccc1NC(=O)CN(c1nccs1)S(=O)(=O)c1ccc(N)cc1	2.2	.
Cc1nn(-c2ccccc2)nc1CNS(=O)(=O)c1ccc2c(c1)OCCN2C	2.2	.
CC(C)(C)c1cc(C(C)(C)C)n(-c2ccc(C(=O)NN)cc2)n1	2.0	.
CC(C)CCn1nc(C(=O)OCC(N)=O)c2ccccc2c1=O	1.8	.
CC(C)CC1N=C2c3ccccc3N=C(SCC(=O)NCCc3ccc(S(N)(=O)=O)cc3)N2C1=O (configuration not stated)	2.0	0.061
Cn1c(CNC(=O)c2ccco2)nnc1SCC(=O)c1ccccc1	-0.3	-0.88
COCCN(C(=O)C1CC1)c1nnc(-c2cc(OC)c(OC)c(OC)c2)s1	-5.5	-0.19
Cc1c[nH]c(=S)c(C#N)c1	-0.2	1.5
COc1ccc(OC)c2[nH]c(C(F)(F)F)nc12	.	0.14
CCOC(=O)CCc1c(C)nc2c(c(C)nn2-c2ccccc2)c1C	-0.7	2
O=C(Cc1cc(=O)[nH]c(=O)[nH]1)N1CCN(c2cccc(Cl)c2)CC1	-0.7	-0.25
Nc1c(C(=O)c2ccc3c(c2)OCCO3)oc2ccccc12	0.5	.
CC(=O)N/N=C/c1cc(C(C)C)cc(/C=N/NC(C)=O)c1O	20	-3.9*
O=C(O)CCN1CCN(c2ccccn2)CC1	-1.1	-0.15
O=C1CC(c2cccc(C(F)(F)F)c2)C2=C(CCCC2=O)N1 (configuration not stated)	-0.5	0.072
S=C(NCc1ccccc1)N1CCCCCC1	-0.1	.
N#CCCn1c(Sc2ncnc3sc4c(c23)CCCC4)nc2ccccc21	-1.5	.
O=C(O)c1cnc2sccn2c1=O	-2.4	1.5
CCSc1nc2cc(S(=O)(=O)N(CC)CC)ccc2n1CC	-0.4	.
O=C(O)CCc1oc2cc(O)ccc2c(=O)c1-c1nc2ccccc2[nH]1	8.6	.
Cc1ccccc1Nc1n[nH]c(=S)s1	3.1	.
c1cnc(N2CCN(Cc3ccc4c(c3)OCO4)CC2)nc1	0.8	0.26&0.24&-0.075
c1cnc2c(Oc3ncnc4c3oc3ccccc34)cccc2c1	0.9	.
CCCCc1nc(Cl)c(CO)n1Cc1ccc(-c2ccccc2-c2nnn[nH]2)cc1	.	0.37&0.003
O=C(CCN1C(=O)c2ccccc2S1(=O)=O)Nc1nc(-c2ccccc2)cs1	-3.9	.
COC(CNC(=S)Nc1cccc(C(F)(F)F)c1)OC	-0.3	-0.43
O=C(O)CSCc1nc2ccccc2[nH]1	1.9	.
Cc1nn(C2CCS(=O)(=O)C2)c(Cl)c1/C=C/C(=O)OCC(=O)c1ccc(Cl)s1 (configuration not stated)	-4.5	.
O=P(c1ccccc1)(c1ccccc1)C(O)c1cccs1 (configuration not stated)	0.9	-0.63
O=C1NC(=O)C(=CN2CCC(Cc3ccccc3)CC2)C(=O)N1	0.7	.
Cc1ccc(-c2nc(=S)c3c(n2CCCO)CCCC3)cc1	1.1	0.16
CSc1ccc(/C=C/C(=O)OCC(N)=O)cc1	-0.8	.
N#Cc1ccccc1NC(=O)CSc1nc(-c2ccccc2)c(-c2ccccc2)o1	0.3	.
CCOc1ccc(OCCOc2ccc(CN3CCN(CC(=O)N(C)C)CC3)cc2OCC)cc1	0.0	.
COc1ccccc1OCCn1c(=N)n(C)c2ccccc21	-1.1	0.37
CC(C)CN(CC(C)C)S(=O)(=O)c1ccc(C(=O)Nc2nnc(-c3ccccn3)o2)cc1	0.8	-0.096
O=C1Nc2ccccc2SC1N1CCCCC1 (configuration not stated)	-0.4	.
Cc1nn(-c2ccccc2)c(-n2cccc2)c1CN	-7.5	2
CCN(CC)c1ccc(NC(=O)COc2ccccc2OC)cc1	1.1	.
CSc1nnc(SC)n1CCNC(=O)c1c(Cl)cccc1Cl	2.2	.
O=C(O)c1cccc(NC(=O)c2cccc(S(=O)(=O)N3CCCCC3)c2)c1	1.9	.
CN1CCC(N(C)C(=O)CNC(=O)c2ccc(Oc3ccccc3)cc2)CC1	-5.9	.
Brc1cccc(OCc2nnc3n2CCC3)c1	1.0	.
N#C/C(=C/c1ccc(N2CCCCC2)o1)C(=O)NCCc1c[nH]c2ccccc12	-19	5.9
OCCOCCN1CCN(C2=Nc3ccccc3Sc3ccccc32)CC1	.	0.73&-0.14&0.18
COc1ccc(O)c(C(=O)c2cnn3c(N)nnc3c2)c1	0.7	.
Next part
SMILES	BasE inh	LANA-nucl inh
NN1C(=O)c2cccc3cccc(c23)C1=O	1.7	.
O=C(CSc1n[nH]c(=O)[nH]c1=O)N1CCCCCC1	-1.1	.
NC(=S)N/N=C/c1cccc(Br)c1	2.3	-0.14
CC(C)N1CC2=C(OC(N)=C(C#N)C2c2cccnc2)/C(=C/c2cccnc2)C1 (configuration not stated)	-2.1	0.35
c1cc(SSc2ccsc2)cs1	-0.8	-1.6
O=C(CCN1C(=O)/C(=C\C=C\c2ccco2)SC1=S)Nc1ccc(C(=O)O)c(O)c1	33*	-0.23
Cc1ccc2nc(CN3NS(=O)(=O)c4ccccc4C3=O)cn2c1	1.8	.
O=C(Nc1nc2nc(-c3ccccc3)cc(=O)n2[nH]1)C1CC1	2.0	-0.73
CCOC(=O)/C(=C(/C)Nc1ccc(F)cc1)C1CC(=O)N(c2cc(C)on2)C1=O (configuration not stated)	0.5	1.5
O=S(=O)(CC(c1ccccc1)N1CCOCC1)c1ccc(Cl)cc1 (configuration not stated)	-2.4	3.3
